# Compound activity deposited in PubChem by Broad Institute.
# Yeast UUG start: modulators of start codon recognition fidelity in yeast. S. cerevisiae UUG-firefly luciferase reporter, luminescence/redox ratio. activity score, % at 18.7 µM. hit rate 0.13% among 350,000;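 active = replicate mean at a twofold rise or more, about +100% in these data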;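 also: firefly luciferase made from a UUG start codon reports start codon fidelity; reporter light over untreated wells divided by growth signal over untreated wells; some hits fall short of that in this replicate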
# An asterisk follows results filed as active. The list is partial; count on the stated rates, not on these rows.
SMILES,Yeast UUG start
C[C@@H]1CN([C@@H](C)CO)C(=O)c2cc(NS(=O)(=O)c3ccccc3)ccc2O[C@@H]1CN(C)Cc1ccc(C(F)(F)F)cc1,18.4
C[C@@H]1CN([C@@H](C)CO)C(=O)c2cccc(NS(=O)(=O)c3ccc(F)cc3)c2O[C@@H]1CN(C)C(=O)Nc1cccc2ccccc12,-1.5
O=C(NCCCN1CCOCC1)[C@H]1N[C@H]2c3ccc(C4=CCCCC4)c(=O)n3C[C@H]2[C@@H]1CO,-6.7
O=S(=O)(Cc1ccccc1)N1CCCCN2[C@@H](CO)[C@H](c3ccc(-c4cccnc4)cc3)[C@@H]2C1,-6.5
CCN(C[C@@H]1[C@@H](c2ccccc2)[C@H](CO)N1C(C)=O)C(=O)NC1CCCC1,12.7
C[C@H](CO)N1C[C@H](C)[C@@H](CN(C)C(=O)Nc2cccc3ccccc23)Oc2c(NC(=O)C3CCCCC3)cccc2C1=O,-1.8
COCC(=O)Nc1ccc2c(c1)OC[C@@H](C)N(Cc1ccncc1)C[C@H](C)[C@@H](OC)CN(C)C2=O,-2.4
C[C@@H]1CN([C@@H](C)CO)C(=O)c2cc(NS(=O)(=O)c3cn(C)cn3)ccc2O[C@H]1CN(C)Cc1ccc(Cl)c(Cl)c1,-16.7
Cc1ccc(S(=O)(=O)Nc2ccc3c(c2)CC(=O)N([C@@H](C)CO)C[C@H](C)[C@H](CN(C)Cc2ccncc2)O3)cc1,2.9
CN(C)C(=O)c1cccc(-c2ccc3c(c2)[C@H]2[C@H](CCN2C(=O)c2ccc4c(c2)OCO4)[C@H](CO)N3)c1,2.0
CN(C)CCCNC(=O)C[C@@H]1CC[C@@H]2[C@H](COC[C@@H](O)CN2S(=O)(=O)c2ccc(F)cc2)O1,34.8
C[C@@H]1CN([C@H](C)CO)C(=O)CCCn2nncc2CO[C@@H]1CN(C)C(=O)Nc1ccc2c(c1)OCCO2,-15.9
O=C(C[C@H]1CC[C@H]2[C@@H](COC[C@H](O)CN2C(=O)Nc2ccccc2)O1)NC1Cc2ccccc2C1,18.8
O=C(c1ccccc1)N1C[C@H]2[C@@H](c3ccccc31)[C@H](CO)N2Cc1ccccc1F,2.3
COc1cccc(-c2ccc([C@@H]3[C@H](CO)N4CCCCN(CC5CC5)C[C@@H]34)cc2)c1,-10.1
CN(C)CC(=O)Nc1ccc2c(c1)[C@H]1C[C@H](CC(=O)N3CCN(C)CC3)O[C@@H](CO)[C@H]1O2,-3.7
C[C@@H]1CN([C@H](C)CO)C(=O)c2cc(NS(=O)(=O)c3cccs3)ccc2O[C@@H]1CN(C)S(C)(=O)=O,-11.3
CS(=O)(=O)N1CCCCN2[C@H](C1)[C@H](c1ccc(C#Cc3ccccn3)cc1)[C@@H]2CO,-2.8
CO[C@H]1CN(C)C(=O)c2cc(NS(=O)(=O)c3ccccc3)ccc2OC[C@@H](C)N(Cc2cccnc2)C[C@H]1C,8.2
C[C@@H]1CN([C@@H](C)CO)C(=O)c2cccc(NC(=O)Nc3ccc4c(c3)OCO4)c2O[C@@H]1CN(C)Cc1ccc(Cl)c(Cl)c1,2.3
CCC(=O)N1C[C@@H]2[C@H](c3ccccc31)[C@@H](CO)N2Cc1ccccc1F,3.0
O=C(C1CCCCC1)N1C[C@H]2[C@@H](c3ccccc31)[C@H](CO)N2C(=O)c1ccccc1F,-6.4
CCC(=O)NC[C@@H]1N[C@@H](CO)[C@H]1c1ccc(C2=CCCC2)cc1,1.8
C[C@H]1CN([C@@H](C)CO)C(=O)c2cccc(NS(=O)(=O)c3cccs3)c2O[C@H]1CN(C)Cc1ccc(-c2ccccc2)cc1,0.3
CNC[C@@H]1Oc2ccc(NC(=O)Nc3ccc(F)cc3)cc2CC(=O)N([C@H](C)CO)C[C@@H]1C,12.3
SMILES,Yeast UUG start
CN1C(=O)c2cc(NC(=O)NCc3ccccc3)ccc2OC[C@H]2O[C@H](CC(=O)NCC3CCCCC3)CC[C@@H]21,2.4
COC(=O)C[C@H]1CC[C@H]2[C@H](COc3ccc(NC(=O)c4cc(C)on4)cc3C(=O)N2C)O1,-6.5
O=C(NCC1CC1)[C@@H]1[C@@H](CO)[C@@H]2Cn3c(ccc(-c4ccccc4F)c3=O)[C@H]1N2Cc1ccncc1,-0.7
O=C(C[C@H]1CC[C@H]2[C@@H](COC[C@@H](O)CN2Cc2cccc(F)c2)O1)NCCc1ccncc1,-12.7
CCC(=O)Nc1ccc2c(c1)C(=O)N(C)C[C@@H](OC)[C@H](C)CN(CC1CC1)[C@H](C)CO2,-6.9
Cc1ccc(S(=O)(=O)Nc2ccc3c(c2)C(=O)N([C@@H](C)CO)C[C@H](C)[C@@H](CN(C)Cc2ccc(Cl)c(Cl)c2)O3)cc1,3.2
C[C@@H]1CN([C@H](C)CO)C(=O)c2cccc(NC(=O)Nc3ccc(F)cc3)c2O[C@@H]1CN(C)Cc1ccc(C(=O)O)cc1,-6.7
Cc1ccc(S(=O)(=O)N2C[C@H](O)COC[C@H]3O[C@@H](CC(=O)N[C@H]4CCN(Cc5ccccc5)C4)CC[C@@H]32)cc1,8.9
COc1ccccc1NC(=O)N1C[C@@H](C)[C@H](OC)CN(C)C(=O)c2cc(NC(=O)c3cnccn3)ccc2OC[C@H]1C,3.3
COc1cccc(S(=O)(=O)N2CCCCN3[C@@H](CO)[C@@H](c4ccc(C5=CCCCC5)cc4)[C@@H]3C2)c1,-13.9
COc1ccc(S(=O)(=O)N(C)C[C@H]2Oc3ccc(NC(=O)CCC(F)(F)F)cc3C(=O)N([C@@H](C)CO)C[C@H]2C)cc1,4.5
COc1ccc(S(=O)(=O)Nc2cccc3c2O[C@H](CN(C)Cc2ccncc2)[C@@H](C)CN([C@@H](C)CO)C3=O)cc1,-10.7
CC(C)NC(=O)Nc1cccc2c1O[C@H](CN(C)Cc1ccncc1)[C@H](C)CN([C@@H](C)CO)C2=O,-1.2
C[C@@H]1CN([C@@H](C)CO)C(=O)c2cc(NS(=O)(=O)c3ccc(Cl)cc3)ccc2O[C@@H]1CN(C)S(=O)(=O)c1cn(C)cn1,6.3
CCCN1[C@H](C(=O)N[C@H](C)c2ccccc2)[C@@H](CO)[C@@H]2Cn3c(ccc(-c4ccccc4)c3=O)[C@@H]21,14.9
C[C@@H]1CN([C@@H](C)CO)C(=O)c2cccc(NC(=O)Nc3ccc(C(F)(F)F)cc3)c2O[C@@H]1CN(C)S(=O)(=O)c1cn(C)cn1,7.6
COCC(=O)Nc1ccc2c(c1)C(=O)N(C)[C@H]1CC[C@@H](CC(=O)NCCCN(C)C)O[C@@H]1CO2,15.5
O=C(C[C@@H]1CC[C@H]2[C@@H](COC[C@H](O)CN2Cc2ccc(Cl)cc2)O1)Nc1nccs1,-4.3
O=C(C[C@H]1CC[C@H]2[C@@H](COC[C@H](O)CN2CC2CCOCC2)O1)N1CCOCC1,7.6
N#Cc1ccc(-c2ccc3c(c2)[C@H]2[C@H](CCN2C(=O)Cc2ccccc2)[C@@H](CO)N3)cc1,11.6
O=C(C1CCCC1)N1CCCCN2[C@H](CO)[C@H](c3ccc(C#CC4(O)CCCC4)cc3)[C@H]2C1,23.4
OC[C@@H]1[C@@H](c2ccc(C#Cc3ccccc3F)cc2)[C@@H]2CN(Cc3cncnc3)CCCCN12,5.1
CO[C@H]1CN(C)C(=O)c2ccc(NC(=O)C3CCCC3)cc2OC[C@@H](C)N(C(C)=O)C[C@H]1C,18.4
CCCNC(=O)Nc1ccc2c(c1)C(=O)N(C)C[C@H](OC)[C@H](C)CN(C(=O)C1CCC1)[C@@H](C)CO2,-16.4
COc1ccc(S(=O)(=O)Nc2ccc3c(c2)C(=O)N([C@@H](C)CO)C[C@H](C)[C@H](CN(C)CC2CCCCC2)O3)cc1,8.2
SMILES,Yeast UUG start
C[C@@H]1CN([C@H](C)CO)C(=O)c2cc(C#CC3CCCCC3)cnc2O[C@H]1CN(C)C(=O)C1CCCCC1,11.8
CCC(=O)N1CCCCN2[C@H](C1)[C@H](c1ccc(-c3ccc(F)cc3)cc1)[C@@H]2CO,0.1
CCCC(=O)Nc1ccc2c(c1)C(=O)N(C)C[C@@H](OC)[C@@H](C)CN(Cc1cccc(F)c1)[C@@H](C)CO2,-2.3
COc1ccc(NC(=O)Nc2ccc3c(c2)C(=O)N([C@H](C)CO)C[C@@H](C)[C@@H](CN(C)C(=O)Nc2ccc(C(F)(F)F)cc2)O3)cc1,-9.1
Cc1cccc(-c2ccc([C@H]3[C@H]4CN(S(=O)(=O)c5ccccc5F)CCCCN4[C@H]3CO)cc2)c1,2.8
CN(C)C(=O)[C@@H]1[C@@H](CO)[C@@H]2Cn3c(ccc(C4=CCCC4)c3=O)[C@H]1N2C,-13.7
O=C(C1CCOCC1)N1CC[C@@H]2[C@H](CO)Nc3ccc(Br)cc3[C@@H]21,0.9
C[C@@H]1CN([C@H](C)CO)C(=O)c2cc(NS(=O)(=O)c3cn(C)cn3)ccc2O[C@@H]1CN(C)S(=O)(=O)c1ccc(F)cc1,3.1
O=C(C[C@@H]1CC[C@H]2[C@@H](COC[C@@H](O)CN2S(=O)(=O)c2ccc(Cl)cc2)O1)NCc1ccc(Cl)c(Cl)c1,18.4
COc1ccc(CN(C)C[C@H]2Oc3c(NC(=O)Nc4ccc(F)cc4)cccc3C(=O)N([C@H](C)CO)C[C@@H]2C)cc1,-8.2
O=C(c1ccccc1)N1CC[C@H]2[C@H](CO)Nc3ccc(-c4ccc(F)cc4)cc3[C@H]21,3.1
O=S(=O)(c1cccs1)N1CCCCN2[C@H](CO)[C@H](c3ccc(/C=C/c4ccccc4)cc3)[C@H]2C1,-9.5
CN(C)C(=O)c1cccc(-c2ccc3c(c2)[C@H]2[C@H](CCN2C(=O)C2CCOCC2)[C@H](CO)N3)c1,-0.7
CC(=O)Nc1ccc2c(c1)C(=O)N(C)[C@H]1CC[C@H](CC(=O)Nc3cccc(C(C)C)c3)O[C@@H]1CO2,20.4
CCC(=O)N1C[C@@H]2[C@H](c3ccccc31)[C@@H](CO)N2C(=O)Nc1ccccc1,27.1
Cc1ccccc1S(=O)(=O)N1CCCCN2[C@H](C1)[C@H](c1ccc(-c3cccc(F)c3)cc1)[C@@H]2CO,4.7
COC(=O)[C@@H]1[C@@H](CO)[C@@H]2Cn3c(ccc(C4=CCCC4)c3=O)[C@@H]2N1C(=O)C1CCCC1,7.4
O=C(C[C@H]1CC[C@@H]2[C@H](COC[C@@H](O)CN2Cc2ccccc2)O1)NCc1ccccc1Cl,16.7
COCC(=O)N1CC[C@H]2[C@H](CO)Nc3ccc(-c4cccc(C(=O)N(C)C)c4)cc3[C@H]21,0.0
C[C@@H]1CN([C@H](C)CO)C(=O)c2cc(NS(C)(=O)=O)ccc2O[C@H]1CN(C)S(=O)(=O)c1ccc(F)cc1,-4.2
Cc1cccc(S(=O)(=O)N2CC[C@@H]3[C@H](CO)Nc4ccc(C#Cc5cccnc5)cc4[C@@H]32)c1,1.4
O=C(C[C@@H]1CC[C@H]2[C@@H](COC[C@@H](O)CN2S(=O)(=O)c2ccc(Cl)cc2)O1)NCCN1CCCC1,0.0
C[C@H]1CN([C@@H](C)CO)C(=O)c2cc(NS(=O)(=O)c3cccs3)ccc2O[C@@H]1CN(C)S(C)(=O)=O,-11.6
Cc1noc(C)c1NC(=O)N(C)C[C@H]1Oc2ccc(NC(=O)NC3CCCCC3)cc2C(=O)N([C@H](C)CO)C[C@H]1C,-14.3
CCCNC(=O)Nc1ccc2c(c1)OC[C@@H](C)N(Cc1ccccc1)C[C@H](C)[C@@H](OC)CN(C)C2=O,0.3

# 6 successive compounds from above:
SMILES,Yeast UUG start
C[C@@H]1CN([C@H](C)CO)C(=O)c2cc(C#CC3CCCCC3)cnc2O[C@H]1CN(C)C(=O)C1CCCCC1,11.8
CCC(=O)N1CCCCN2[C@H](C1)[C@H](c1ccc(-c3ccc(F)cc3)cc1)[C@@H]2CO,0.1
CCCC(=O)Nc1ccc2c(c1)C(=O)N(C)C[C@@H](OC)[C@@H](C)CN(Cc1cccc(F)c1)[C@@H](C)CO2,-2.3
COc1ccc(NC(=O)Nc2ccc3c(c2)C(=O)N([C@H](C)CO)C[C@@H](C)[C@@H](CN(C)C(=O)Nc2ccc(C(F)(F)F)cc2)O3)cc1,-9.1
Cc1cccc(-c2ccc([C@H]3[C@H]4CN(S(=O)(=O)c5ccccc5F)CCCCN4[C@H]3CO)cc2)c1,2.8
CN(C)C(=O)[C@@H]1[C@@H](CO)[C@@H]2Cn3c(ccc(C4=CCCC4)c3=O)[C@H]1N2C,-13.7

# New compounds follow.
SMILES,Yeast UUG start
O=C(C[C@@H]1CC[C@H]2[C@@H](COC[C@H](O)CN2Cc2ccccc2)O1)NCc1ccccc1Cl,8.2
C[C@@H]1CN([C@H](C)CO)C(=O)c2cccc(NC(=O)c3cnccn3)c2O[C@H]1CN(C)S(C)(=O)=O,-3.1
C[C@@H]1CN([C@H](C)CO)C(=O)c2cccc(NC(=O)c3cnccn3)c2O[C@H]1CN(C)C(=O)Nc1ccc2c(c1)OCO2,6.2
C[C@@H]1CN([C@@H](C)CO)C(=O)c2cc(NC(=O)NC3CCCCC3)ccc2O[C@H]1CN(C)Cc1ccc(C(F)(F)F)cc1,-0.1
C[C@H](CO)N1C[C@H](C)[C@@H](CN(C)S(=O)(=O)c2ccc(C#N)cc2)OCc2ccccc2-c2ccccc2C1=O,12.3
CC(C)NC(=O)N(C)C[C@@H]1OCc2ccccc2-c2c(n(C)c3ccccc23)C(=O)N([C@H](C)CO)C[C@H]1C,2.5
COCC(=O)N1C[C@@H]2[C@H](c3ccccc31)[C@@H](CO)N2C(=O)c1ccccc1F,4.4
C[C@@H]1CN([C@H](C)CO)C(=O)c2cc(NC(=O)CCC(F)(F)F)ccc2O[C@H]1CN(C)C,-20.9
C[C@H](CO)N1C[C@H](C)[C@H](CN(C)Cc2ccc(Cl)c(Cl)c2)Oc2c(NC(=O)Nc3cccc4ccccc34)cccc2C1=O,-5.9
CCCNC(=O)Nc1ccc2c(c1)OC[C@@H](C)N(Cc1cncnc1)C[C@H](C)[C@@H](OC)CN(C)C2=O,-1.4

# Rewritten as tab-separated lines: part of the list above.
SMILES	Yeast UUG start
COCC(=O)Nc1ccc2c(c1)OC[C@@H](C)N(Cc1ccncc1)C[C@H](C)[C@@H](OC)CN(C)C2=O	-2.4
C[C@@H]1CN([C@@H](C)CO)C(=O)c2cc(NS(=O)(=O)c3cn(C)cn3)ccc2O[C@H]1CN(C)Cc1ccc(Cl)c(Cl)c1	-16.7
